Rce1 inh = inhibitors of yeast Ras-converting enzyme; 0.27% of 290,000 active; calls only; yeast membranes, quenched prenylated peptide cleavage fluorescence; Q03530;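 active means fall in fluorescence gain of 50% or more versus controls, with final raw signal at or below 3038400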;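 further: plate controls were neutral control wells for no effect and wells lacking membranes for full effect; tested at 10 µM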
Yeast UUG start = yeast start codon fidelity modulation. activity score, % at 18.7 µM. S. cerevisiae UUG-firefly luciferase reporter, luminescence/redox ratio. AID 602363. 0.13% of 350,000 active;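 active means replicate mean at a twofold rise or more, about +100% in these data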;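 further: firefly luciferase made from a UUG start codon reports start codon fidelity; reporter light over untreated wells divided by growth signal over untreated wells; some hits fall short of that in this replicate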
MT1-MMP act inh = inhibitors of human MT1-MMP activation. HT1080 RFP-PRO-GFP cells, GFP/RFP ratio fluorescence, overnight; percent of plate control window, DMSO zero. GFP/RFP ratio change, % at 20 µM. 0.061% of 360,000 active. AID 651647;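 active means GFP/RFP ratio change of at least 30% with cell ATP level not reduced by more than half and red fluorescence within 50% of control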; further: strong numbers were not always called active
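Test system: HT1080 cells expressing an RFP-PRO-GFP fluorescent reporter construct / Compound dosing: single-point 20 µM compound, 1% DMSO / Schedule: cells overnight before dosing, compound overnight, 37 °C, 5% CO2 / Evaluation: GFP/RFP fluorescence ratio / Control set: DMSO and RFP-L50D-GFP cell wells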
PABP FP inh = blocks human PABP binding to poly(A) RNA; P11940; fluorescence polarization; inhibition, % at 35 µM; 1% of 290,000 active; AID 2014;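 active means 50% or more with normal probe brightness, or confirmed in later tests; about a fifth of its hits are not listed in these tables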;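 further: calls also rest on retests at 20 µM and on dose response follow-up; controls were probe without protein and protein plus probe with vehicle; some compounds called inactive have numbers as strong as hits; many hits fall short of the cut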
Target sequence (P11940 whole entry, looked up): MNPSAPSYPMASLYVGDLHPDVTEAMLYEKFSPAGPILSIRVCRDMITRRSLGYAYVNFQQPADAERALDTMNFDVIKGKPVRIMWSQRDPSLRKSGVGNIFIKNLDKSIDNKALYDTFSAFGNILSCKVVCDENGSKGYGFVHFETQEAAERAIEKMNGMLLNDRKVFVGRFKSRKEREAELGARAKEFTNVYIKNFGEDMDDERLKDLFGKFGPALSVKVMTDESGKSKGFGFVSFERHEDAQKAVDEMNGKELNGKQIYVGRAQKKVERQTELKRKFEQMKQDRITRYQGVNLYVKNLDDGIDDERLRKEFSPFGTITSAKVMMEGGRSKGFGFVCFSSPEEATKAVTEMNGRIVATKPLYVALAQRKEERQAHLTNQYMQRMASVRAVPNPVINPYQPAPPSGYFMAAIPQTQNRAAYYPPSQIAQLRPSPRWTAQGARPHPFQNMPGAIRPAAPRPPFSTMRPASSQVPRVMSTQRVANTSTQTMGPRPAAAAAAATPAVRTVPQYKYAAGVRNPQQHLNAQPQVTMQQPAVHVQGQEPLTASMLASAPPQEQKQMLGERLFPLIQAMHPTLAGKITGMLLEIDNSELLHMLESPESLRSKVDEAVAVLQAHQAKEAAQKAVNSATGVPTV
CSC inhib = blocks cancer stem cells; cancer stem cell-like cells viability, luminescence; inhibition, % at 7.5 µM; 1.1% of 300,000 active;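 active means mean at 75% or more and at least half the replicates too; tested in HMLE shEcad cells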;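 further: 0% = median of negative and 100% = median of positive control wells; the first replicate is given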
eIF4H inh = inhibitors of RNA binding by human eIF4H; Q15056; eIF4H fluorescence polarization binding assay; inhibition, % at 35 µM; 0.94% of 290,000 active; AID 2012;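 active means 50% or more with normal probe brightness, or confirmed in later tests; about a fifth of its hits are not listed in these tables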;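 further: calls also rest on retests at 20 µM and on dose response follow-up; 0% = protein and probe with vehicle and 100% = probe without protein; strong numbers were not always called active; many hits fall short of the cut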
Env fusion inh = inhibitors of HIV Env-mediated cell fusion | HeLa-JRFL Env/CEM21 cell fusion, luciferase | inhibition, % at 12.3 µM | 1.1% of 360,000 active;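 active means mean replicate inhibition score of at least 50 and every replicate individually at or above 50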;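 further: 0% = plate neutral controls and 100% = maraviroc near 300 nM; one replicate is shown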
eIF4H inh retest = further read-out of eIF4H inh, marked with its call; inhibition, %; compound at 20 µM; confirmation average;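 mean of two retest wells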
PABP FP inh retest = second read-out of PABP FP inh, no call of its own (marks repeat the call); inhibition, %; compound at 20 µM; confirmation repeats;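 mean of two retest wells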
MT1-MMP act inh RFP = also measured in MT1-MMP act inh; calls as there; RFP signal change, %; measured here: RFP expression control read;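 0 = vehicle wells; hits needed this value within 50% of zero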
* marks the source's active call; other numbers are inactive results; i = inactive; . = no result given.

SMILES	Rce1 inh	Yeast UUG start	MT1-MMP act inh	MT1-MMP act inh RFP	PABP FP inh	CSC inhib	eIF4H inh	Env fusion inh	others
CCn1cc(CNCc2cn[nH]c2-c2cc3ccccc3o2)cn1	i	.	-2.9	-3.2	-3.3	-15.4	-1.9	-1.2
Cc1cc(=O)oc2cc(OCC(=O)OCC(=O)Nc3ccc(C(N)=O)cc3)ccc12	i	-13.1	2.5	1.8	10.2	.	-11.9	-7.5
CCC(C)NCCCOc1ccc(Cl)cc1C(C)(C)C (stereo not given)	i	-0.4	-0.9	2.3	-0.5	-0.2	5.9	7.3
COc1cc(C(=O)NCC(=O)N2CCN(S(=O)(=O)c3cc(C)ccc3C)CC2)cc(OC)c1OC	i	-0.1	3.1	-5.5	-2.6	30.7	0.9	.
COc1ccc(-c2c(C)nn3c(C(F)(F)F)cc(C)nc23)cc1	.	-15.0	4.2	5.2	.	.	.	87.1*
CCOc1ccccc1/C=C(\NC(=O)c1ccccc1)C(=O)NCCC(=O)O	i	.	4.8	8.4	5.8	.	3.7	.
O=C(N[C@@H](Cc1ccccc1)C(=O)N1CCC2(CC1)NCCc1[nH]cnc12)c1cccc(F)c1	i	-6.8	0.5	2.1	.	-11.1	.	-4.1
CC(C)c1nnc(NC(=O)CCc2ccccc2)s1	i	-16.8	3.1	5.0	-1.1	4.1	-4.4	-5.5
CN(C(=O)c1ccc(S(=O)(=O)N2CCCC2)cc1)C1CCCCC1	.	-13.4	1.2	1.8	5.1	-22.5	4.9	-19.8
NNc1nc(-c2ccccc2)c2cc(Br)ccc2n1	i	-20.1	-2.8	-2.1	-1.6	22.6	-2.2	-5.8
CC(=O)Nc1ccc(S(=O)(=O)Nc2cccc(N(C)S(C)(=O)=O)c2)cc1	.	-10.4	1.4	-0.2	9.8	-4.8	11.2	.
COC(=O)C(NC(C)=O)(Nc1nc2c(s1)CCCC2)C(F)(F)F (stereo not given)	i	-10.3	-4.2	4.9	8.9	-3.3	4.5	.
Nc1c(N(Cc2ccco2)C(=O)c2ccc(Cl)cc2)c(=O)[nH]c(=O)n1Cc1ccccc1	.	-0.8	-5.6	0.1	.	-11.3	.	4.1
CCOC(=O)c1c(C)[nH]c(C(=O)N2CCC(C(=O)OCC)CC2)c1C	i	-2.4	-1.0	3.2	-0.5	-5.5	1.5	-0.8
O=C(O)c1ccc(COc2ccc(CO)cc2Cl)cc1	i	-23.8	-2.5	1.9	13.8	-17.1	-2.6	-42.9
Oc1c(C(Nc2cccc(C(F)(F)F)c2)c2cccnc2)ccc2cccnc12 (stereo not given)	i	.	5.5	1.7	-1.6	32.8	4.4	-5.1
CC(C)(C)c1ccc(C(=O)Nc2ccc(N3CCOCC3)cc2)cc1	i	7.8	6.4	-3.6	-1.8	79.4*	-2.1	.
CCOC(=O)[C@H]1[C@H]2COc3cc(OC)ccc3[C@@H]2N2C(=O)CN(CCc3c[nH]c4ccccc34)C(=O)[C@@]12C	.	8.4	1.4	-0.7	.	23.8	.	-12.3
Nc1nc(SCc2ccccc2)c2ncn(CCO)c2n1	.	-7.9	-1.4	0.7	.	.	.	-11.5
Cc1cccn2c(=O)c3cc(S(=O)(=O)c4ccc(Br)cc4)c(=N)n(C4CCCC4)c3nc12	i	-7.9	2.3	-1.8	10.6	18.2	7.2	-6.1
COC(=O)c1nnn(-c2nonc2N)c1CSc1nnc(N)s1	i	.	-3.2	-0.6	74.4	-7.1	-2.6	4.9	eIF4H inh retest=4.4;PABP FP inh retest=3.4
CCCCCC(=O)Nc1nc(C)c(-c2csc(Nc3ccccc3OC)n2)s1	i	-15.7	2.2	2.4	5.3	40.3	-5.3	5.6
COc1cc(Cl)c(C)cc1NC(=O)c1ccccc1NC(=O)CN1CCN(c2ccccn2)CC1	.	-10.6	-6.5	-12.3	.	.	.	33.1
Cc1c(NC(=O)CC(O)(C(F)(F)F)C(F)(F)F)c(=O)n(-c2ccccc2)n1C	i	-9.0	4.2	-2.6	-7.0	7.3	-1.5	12.9
CCC1ON(C(C)C)C2c3nc4ccccc4n3CC12 (stereo not given)	i	-15.8	-5.6	0.2	10.1	7.2	-1.8	-27.1
O=C1OCCC1=COCCCCCCOC=C1CCOC1=O	.	2.3	-4.1	-2.7	.	.	.	-19.1
COC(=O)c1cc(NC(=O)c2ccc(-c3ccccc3)cc2)ccc1Cl	i	-14.5	1.0	-9.2	-3.9	9.5	0.4	.
O=C(NCCc1ccccc1)c1noc2c1CCc1ccccc1-2	i	-0.8	3.1	2.7	-1.5	-5.6	-6.8	-54.5
CCOc1ccc2oc(C(=O)NNC(=O)c3ccccc3O)c(C)c2c1	i	-13.8	9.9	-1.0	.	.	.	-1.4
O=C(N/C=C/c1ccccc1)c1ccccc1	i	-26.8	-3.2	-4.9	.	-1.1	.	.
Cc1ccccc1C1C(=O)c2ccccc2C1=O	i	-14.7	0.9	1.7	14.5	21.0	-6.4	20.3
CCN(CC)S(=O)(=O)c1ccc(N2CC(C(=O)N3Cc4ccccc4CC3C(N)=O)CC2=O)cc1 (stereo not given)	.	0.9	-4.1	1.4	.	-22.5	.	-1.6
COc1ccccc1NC(=O)CCCC(=O)OC(C)C(=O)c1ccccc1 (stereo not given)	i	.	0.6	0.2	4.3	.	-1.4	10.8
CCOC(=O)N/N=C/c1ccccc1F	i	-9.8	2.4	1.4	0.2	-9.8	-5.9	-22.3
CCN1CCN(CCCN(Cc2ccco2)C(=S)Nc2ccc(C)c(Cl)c2)CC1	i	.	4.7	3.7	3.5	38.6	0.1	11.7
Clc1ccc(-n2nnc(-c3cccnc3Cl)n2)cc1Cl	i	-17.0	1.3	-3.4	-3.0	-13.4	-9.4	-202.2
CCOC(=O)C(=NCCCN(C)C)NNc1ccc(Br)cc1	i	.	0.5	2.7	3.2	17.6	-7.1	-7.9
O=C(C[n+]1ccc(-c2nnc3n2CCCCC3)cc1)c1ccc(Cl)cc1	i	.	1.0	-0.3	5.8	8.0	0.5	17.2
COc1ccc(C(=O)c2ccsc2N)cc1	i	.	-5.9	28.8	0.7	-4.8	2.0	-6.5
COc1cccc(N(CC(=O)NCCSCc2ccc(Cl)cc2)S(C)(=O)=O)c1	i	-7.3	-1.9	-4.8	0.7	3.7	8.7	45.4
CCc1ccc(OCC(=O)NC2CC(C)(C)NC(C)(C)C2)cc1	i	.	-3.5	-0.8	-7.2	-6.1	-11.3	7.4
CC(=O)Nc1ccc(OCCOc2ccc(NC(C)=O)cc2)cc1	i	-11.4	-0.4	-0.1	-2.0	-1.8	-4.3	-12.7
CN(Cc1cccs1)C(=O)CSc1nc(N)cc(N)n1	i	.	-1.1	4.8	-0.8	-6.8	-3.0	-12.9
CC(=O)c1cccc(N(C(=O)c2ccccn2)C(C(=O)NC2CCCCC2)c2cccs2)c1 (stereo not given)	i	-20.2	3.0	4.0	0.1	5.8	7.0	.
CCNC(=S)N/N=C(\C)c1ccc2c(c1)OCCO2	i	-39.9	6.8	5.4	-2.6	-7.6	-11.5	.

As a short view, part of the list above:
SMILES	Rce1 inh	Yeast UUG start	MT1-MMP act inh	MT1-MMP act inh RFP	PABP FP inh	CSC inhib	eIF4H inh	Env fusion inh	others
Clc1ccc(-n2nnc(-c3cccnc3Cl)n2)cc1Cl	i	-17.0	1.3	-3.4	-3.0	-13.4	-9.4	-202.2
CCOC(=O)C(=NCCCN(C)C)NNc1ccc(Br)cc1	i	.	0.5	2.7	3.2	17.6	-7.1	-7.9

Continuation.
SMILES	Rce1 inh	Yeast UUG start	MT1-MMP act inh	MT1-MMP act inh RFP	PABP FP inh	CSC inhib	eIF4H inh	Env fusion inh	others
CN1C[C@@H]2C(c3ccc(C(F)(F)F)cc3)C3(c4ccccc4)CC2(C3)[C@H]1c1ccccc1 (stereo not given in full)	i	-11.6	-0.7	-3.3	-1.3	-1.6	-0.4	-19.2
Cc1ccccc1-n1c(=S)[nH]c2nc3c(cc2c1=O)CCCC3	i	.	-5.1	-3.4	-2.4	-10.9	-5.3	-0.9
Cc1ccc(S(=O)(=O)N2CCCC(C(=O)NCCC3=CCCCC3)C2)cc1 (stereo not given)	.	-12.0	-20.3	-15.6	4.6	.	-9.5	28.2
Cc1c(C(=O)Nc2cccc(Oc3ccccc3)c2)sc(=O)n1Cc1ccc(F)cc1	.	-24.3	0.1	-18.8	.	.	.	-14.4
CC(C)(C)OC(=O)NCc1ccc(CNC(=O)c2[nH]cnc2C(=O)N[C@@H](Cc2ccccc2)C(=O)OC(C)(C)C)cc1	i	11.8	5.3	-4.9	-0.6	42.4	15.6	44.0
Nc1nc2nccc(-c3ccco3)n2n1	.	.	6.1	4.8	-3.3	0.1	3.9	-10.5
CC(=O)OC1(C(C)=O)CCC2C3CC(C(F)(F)F)C4=CC(=O)CCC4(C)C3CCC21C (stereo not given)	.	-7.1	-0.7	-4.1	.	.	.	-4.1
COc1ccc(CCNC(=O)NC23CC4CC(CC(C4)C2)C3)cc1OC	i	-3.7	0.4	3.0	-6.5	-5.2	-20.6	.
Cc1nc(SCC(=O)Nc2nccs2)c(C#N)c(C)c1C	.	-10.5	0.7	-0.1	.	.	.	-4.0
CC(C)C1N=C(c2ccc3c(c2)OCO3)CC(c2ccccc2O)N1 (stereo not given)	i	-18.9	-6.2	-7.0	4.1	14.0	-2.9	.
CCCC(C)c1nnc(NC(=O)CN2C(=O)c3ccccc3C2=O)s1 (stereo not given)	i	.	0.1	-2.6	7.5	-5.1	-7.4	0.9
Nc1cccnc1Sc1cccc(Cl)c1	i	-13.1	-3.4	1.8	10.0	.	13.9	3.5
Cc1cc2nc3n(c2cc1C)CC1CC(C(=O)NCCC(C)C)N(C)C31 (stereo not given)	i	-15.0	-4.8	1.9	.	-4.9	.	10.0
CCN1CCN(c2ccc(S(=O)(=O)N3CCOCC3)cc2NC(=O)c2cc(Cl)nc3ccccc23)CC1	i	.	2.5	3.0	.	-9.1	.	.
COC(=O)Cn1nc(-c2ccccc2)c2ccccc21	i	-11.9	0.6	-6.1	3.4	-3.5	2.9	-9.8

Of the compounds above, 2 contain a COOH group:
SMILES	Rce1 inh	Yeast UUG start	MT1-MMP act inh	MT1-MMP act inh RFP	PABP FP inh	CSC inhib	eIF4H inh	Env fusion inh	others
CCOc1ccccc1/C=C(\NC(=O)c1ccccc1)C(=O)NCCC(=O)O	i	.	4.8	8.4	5.8	.	3.7	.
O=C(O)c1ccc(COc2ccc(CO)cc2Cl)cc1	i	-23.8	-2.5	1.9	13.8	-17.1	-2.6	-42.9

Going on with the list:
SMILES	Rce1 inh	Yeast UUG start	MT1-MMP act inh	MT1-MMP act inh RFP	PABP FP inh	CSC inhib	eIF4H inh	Env fusion inh	others
CCOC(=O)c1sc(NC(=O)c2cc3ccccc3o2)nc1C	i	.	6.4	3.7	1.6	8.1	-1.9	-44.0
CCOC(=O)C1=C(C)C/C(=N\NC(=O)c2ccccc2O)CC1	i	.	-1.9	1.9	10.2	-13.2	4.4	-10.1
COC(=O)C1(CO)NC(c2ccc(C)cc2)C2C(=O)N(c3ccccc3)C(=O)C21 (stereo not given)	i	1.8	-3.4	1.8	3.6	10.3	2.1	16.1
COc1ccc(/C(=N/O)C(C)(C)NO)cc1	i	-14.6	4.1	4.6	6.1	10.8	1.5	.

Part of the list above in order of SMILES length, ascending:
SMILES	Rce1 inh	Yeast UUG start	MT1-MMP act inh	MT1-MMP act inh RFP	PABP FP inh	CSC inhib	eIF4H inh	Env fusion inh	others
CCOC(=O)C(=NCCCN(C)C)NNc1ccc(Br)cc1	i	.	0.5	2.7	3.2	17.6	-7.1	-7.9
Cc1ccccc1-n1c(=S)[nH]c2nc3c(cc2c1=O)CCCC3	i	.	-5.1	-3.4	-2.4	-10.9	-5.3	-0.9
COc1ccc(-c2c(C)nn3c(C(F)(F)F)cc(C)nc23)cc1	.	-15.0	4.2	5.2	.	.	.	87.1*

Screening results: PubChem, several laboratories

Only part of the results is shown; count on the stated rates, not on these rows.
